CtBP-E1A blk: inhibitors of CtBP/E1A interaction | 340,000 tested, 0.49% active | AlphaScreen GST-E1A/His-CtBP binding, 1536-well; stronger effect = lower value; control for the full effect not named in the record | activity change, % (test concentration not listed); in the data active means activity change below about -65%; inconclusive means about -30% to -65%; inactive means above about -30%; note: % is set by controls: 0 for no effect and ±100 for the full control effect; compound concentration not given in the record
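In 5 uL wells, 23 nL compound meets equimolar GST-E1A and His-CtBP (5X stock 125 nM each) for 2 h, 37 °C. Beads (5X, 50 ug/mL) then 1 h, 37 °C, dark.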
D2 agonist: agonists of human D2 dopamine receptor (beta-arrestin); P14416; DiscoveRx PathHunter D2 beta-arrestin, luminescence, 90 min; 100% = 57 uM dopamine signal; activation, % (test concentration not listed); 360,000 tested, 0.084% active; AID 624465; in the data active = activation above about 40%; inconclusive = about 15% to 40%; inactive = below about 15%; note: compound concentration not given in the record; the text of the record calls up to 30% inactive
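DiscoveRx PathHunter D2 beta-arrestin cells (2,100/well) attached overnight, then compound-stimulated 90 min at 37 C in HBSS/10 mM HEPES/0.1% Tween-20 buffer; beta-galactosidase complementation read by luminescence after 1 h at ambient temperature. Dopamine 57 uM final (EC100) as control.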
gsp agonist: gsp mutant agonism; Potency, µM (highest dose often 76.9 µM), for the others: at the top dose activation (cAMP increase), most hits filed as activators; gsp mutant cells, cAMP HTRF, 30 min; control for the full effect not named in the record; 340,000 tested, 0.13% active; active = well fitted activation curve with a large enough effect; inconclusive = small, poorly fitted or top-dose-only effect, or another doubt; inactive = no such curve, though single readings can be large or run the other way; cell line not stated here;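 note: phosphodiesterase inhibitor Ro 20-1724 added with compounds to block cAMP breakdown; potency is the fitted concentration of half-maximal effect; nearly all actives have a fitted effect of over 60% in size; about a fifth of the inactives were tested at one dose only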
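Cells in DMEM/10% FBS with G418 were pretreated with compounds in DMSO plus […] (300 uM stock) for 30 min at 37C. cAMP was measured by HTRF (cAMP-d2 plus anti-cAMP antibody-K) after 30 min at room temperature.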
Six1-Eya2 inh: Six1/Eya2 interaction inhibition | Q15475+O00167 | AlphaScreen GST-Six1/His-Eya2 binding, biochemical; stronger effect = lower value; control for the full effect not named in the record | activity change, % (test concentration not listed) | 360,000 tested, 0.56% active | AID 651725; in the data active = activity change below about -65%; inconclusive = about -30% to -65%; inactive = above about -30%; note: % is set by controls: 0 for no effect and ±100 for the full control effect; compound concentration not given in the record
Target sequence (O00167 whole entry, looked up): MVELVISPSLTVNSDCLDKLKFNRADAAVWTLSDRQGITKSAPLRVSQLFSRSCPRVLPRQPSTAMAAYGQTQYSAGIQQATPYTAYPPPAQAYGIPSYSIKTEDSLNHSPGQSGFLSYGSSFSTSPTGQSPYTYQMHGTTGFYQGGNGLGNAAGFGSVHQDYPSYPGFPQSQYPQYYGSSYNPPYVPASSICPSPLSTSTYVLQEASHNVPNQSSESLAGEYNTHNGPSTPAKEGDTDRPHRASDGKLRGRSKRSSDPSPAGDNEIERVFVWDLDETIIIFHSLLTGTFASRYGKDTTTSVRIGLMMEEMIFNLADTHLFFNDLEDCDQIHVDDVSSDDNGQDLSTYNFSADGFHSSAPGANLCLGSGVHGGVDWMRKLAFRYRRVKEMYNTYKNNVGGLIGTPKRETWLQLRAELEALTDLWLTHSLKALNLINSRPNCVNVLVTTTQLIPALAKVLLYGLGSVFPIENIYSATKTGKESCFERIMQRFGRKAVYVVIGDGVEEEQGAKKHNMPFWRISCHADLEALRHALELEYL
Target sequence (Q15475 whole entry, looked up): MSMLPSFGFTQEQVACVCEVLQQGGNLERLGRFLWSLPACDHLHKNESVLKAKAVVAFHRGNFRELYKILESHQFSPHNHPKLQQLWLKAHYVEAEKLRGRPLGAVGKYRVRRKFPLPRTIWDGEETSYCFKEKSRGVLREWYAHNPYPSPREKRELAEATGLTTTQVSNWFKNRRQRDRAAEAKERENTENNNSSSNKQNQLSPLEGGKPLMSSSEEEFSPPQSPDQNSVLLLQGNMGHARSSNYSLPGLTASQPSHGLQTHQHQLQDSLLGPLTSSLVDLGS
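AlphaScreen luminescence read after one hour at 37 °C in darkness. Pin-transferred compounds met GST-Six1 and His-Eya2 protein (5X stock 250 nM/500 nM) plus glutathione donor and Ni-chelate acceptor beads (5X, 50 ug/mL).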
D2 PAM: human D2 receptor positive allosteric modulation; potentiation, % (concentration not given with the values); 360,000 tested, 0.23% active; DiscoveRx D2 beta-arrestin cells, luminescence, 90 min; 100% = 57 uM dopamine signal; P14416; active = potentiation of 50% or more; inconclusive = 30% to 50%; inactive = 30% or less;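 note: compound concentration not given in the record; tested on top of an EC20 dose of dopamine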
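PathHunter beta-arrestin assay in DiscoveRx D2 cells. Compounds were added with an EC20 of dopamine (50 nM final) for 90 min at 37 deg C. Luminescence was read 1 h after detection reagent, with 57 uM dopamine as the EC100 control.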
gsp antagonist: antagonists of gsp mutant (McCune-Albright syndrome) | gsp-mutant cells, cAMP HTRF, 30 min; control for the full effect not named in the record | Potency, µM (highest dose often 76.9 µM), without a hit: top-dose activity change, negative = inhibition, actives largely listed as inhibitors | 340,000 tested, 0.4% active | AID 624288; active = falling curve of any shape with a large fitted effect; inconclusive = falling curve, mostly with a smaller effect; inactive = flat or rising curve; cell line not stated here;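 note: intracellular cAMP measured with PDE inhibitor Ro 20-1724 present during compound exposure; potency is the fitted concentration of half-maximal effect; % is set by controls: 0 for no effect and ±100 for the full control effect; nearly all actives have a fitted effect of over 65% in size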
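Measurement of cellular cAMP by homogeneous time-resolved fluorescence following a 30 min compound exposure at 37C. The PDE inhibitor […] was present throughout; the assay buffer was DPBS with 0.05% BSA and 0.005% Tween 20.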
* hit, by the source's call; ? = inconclusive; . = no result given; [ ] = remark or other dose.

Molecule	CtBP-E1A blk	D2 agonist	D2 PAM	gsp agonist	gsp antagonist	Six1-Eya2 inh
O=C(O)CSc1nnc(COc2cccc3cccnc23)n1-c1cccc(C(F)(F)F)c1	6	-2.8	-3	4%[15.4 µM]	4%	0
NC(=O)N/N=C/c1ccc([N+](=O)[O-])o1	-5	-0.6	16	.	1%	16
CC(OC(=O)CCN1C(=O)C2CC=CCC2C1=O)C(=O)c1ccc(F)cc1 (configuration not stated)	1	4.4	0	-18%	5%	2
O=C(CNCc1ccccc1)Nc1ccccc1-c1ccccc1	0	-2.3	-5	13%[15.4 µM]	9%	-1
CCOc1ccc2nc(NC(=O)C3=NN(c4ccccc4)C(=O)CC3)sc2c1	.	-0.8	-16	-2%	-22%	0
O=C(Nc1ccc(Cl)cc1)C1=Cc2ccccc2OC1	11	-1.8	-37	-9%	-21%	6
O=C(Nc1ccccc1OC(F)F)c1ccc(N2CCCC2=O)cc1	5	-3.3	-11	-46%[inhibitor]	.	2
COc1cccc2c1Oc1ncccc1N(C(=O)CCC(=O)NCc1ccccc1F)C2	.	2.5	-4	-1%	8%	8
O=S1(=O)N=C2CCCCCN2C(c2ccc(F)cc2)N1 (configuration not stated)	.	3.0	-26	28%	6%	-3
S=c1[nH]nc(COc2ccccc2)n1-c1ccccc1	7	1.3	-8	2%[15.4 µM]	-10%	-1
COc1ccc(-c2nc(CN3CCN(C(=O)c4ccco4)CC3)c(C)o2)c(OC)c1C	-11	46*	?	-11%	2%	-1
CC1=CC(=O)[C@@H](OC(=O)Nc2ccc(C)cc2)[C@@H](c2ccccc2Br)N1C	-3	-0.8	-3	.	2%	5

Following part:
Molecule	CtBP-E1A blk	D2 agonist	D2 PAM	gsp agonist	gsp antagonist	Six1-Eya2 inh
Cc1ccc(SCC(=O)O/N=C(\N)c2ccc([N+](=O)[O-])cc2)cc1	-29	-0.4	-4	-11%	10%	-18
COc1nc(-c2ccccc2)cc(-c2ccc(OC)c(OC)c2)n1	?	3.7	-11	?	-7%	-27
COC(=O)[C@H]1CN(C(=O)c2ccccc2)C(=O)N1	8	-1.5	2	.	7%	1
CCC1=C(c2ccc(C)cc2)S(=O)(=O)N=C1N1CCC(C(=O)NCCCN2CCCCC2)CC1	0	-2.7	-22	-56%[inhibitor]	9%	-1
O=C(NN1CCCCC1)c1cnn2c(C(F)F)cc(-c3ccccc3)nc12	3	3.5	0	-65%[inhibitor]	-6%	-4
Cc1nnc(NC(=O)CSc2ccccc2N)s1	.	5.0	-3	-19%	1%	3
Cc1ccc(CNC(=O)CSc2nc(C)cs2)cc1	.	0.7	-7	-24%	5%	-1
CC1=C(C(=O)OCc2ccc3c(c2)OCO3)C(c2ccc(O)c([N+](=O)[O-])c2)NC(=O)N1 (configuration not stated)	-10	-4.5	-11	-3%[15.4 µM]	-26%	13
O=C(Nc1nnc(C2CC2)s1)C1Cc2ccccc2CN1S(=O)(=O)c1cccs1 (configuration not stated)	?	-1.3	4	?	-7%[15.4 µM]	?
CC(C)(C)N1CC(C(=O)O)CC1=O (configuration not stated)	-1	-1.8	1	7%[15.4 µM]	8%	-4
Oc1ccc(-c2[nH]ncc2-c2cccc3cccnc23)c(O)c1	7	0.2	-2	-11%	-7%	-8
O=C(Nc1ccc2snnc2c1)N1CCSCC1	3	-1.2	-5	-1%	9%	3

Next section.
Molecule	CtBP-E1A blk	D2 agonist	D2 PAM	gsp agonist	gsp antagonist	Six1-Eya2 inh
COc1ccccc1/C=N/Nc1nc(C)cc(C)n1	-1	3.4	-7	3%[15.4 µM]	-23%	-7
O=S(=O)(CCOc1ccccc1)N1CCOCC1	0	-1.8	-16	2%	12%	17
Cc1ccc(NC(=O)CN(C)C(=O)COC(=O)CCS(=O)(=O)c2ccc(C)cc2)cc1	7	-3.4	-1	8%	-9%	0
C=CCN1C(=O)C(Cc2ccc(C)cc2)S/C1=N/N=C/c1ccco1 (configuration not stated)	7	-3.4	-2	-42%	-2%	0
FC(F)Oc1ccc(NC(=S)NCC2COc3ccccc3O2)cc1 (configuration not stated)	8	-1.9	-2	?	5%	-1
CC(C)CN(C(=O)COC(=O)CSc1ccc(Br)cc1)C1CCS(=O)(=O)C1 (configuration not stated)	2	-6.0	-25	?	-4%	8
COc1ccc(C(C)(C)C)cc1NC(=O)c1cccc(S(=O)(=O)N2CCN(C(C)=O)CC2)c1	2	-4.3	-3	6%[15.4 µM]	0%	7
CCOP(=O)(OCC)c1nc(-c2ccc(C)cc2)oc1N1CCOCC1	7	-3.9	-2	-5%	-3%	-1
CCOC(CNc1cc(C)nc2c(-c3ccccc3OC)c(C)nn12)OCC	2	-0.8	-4	24%	0%	5
CC(Sc1nnc(Nc2ccccc2)s1)C(=O)NC1CCCc2ccccc21 (configuration not stated)	-7	-0.8	-14	-4%	?	-8
COCCn1c(=NC(=O)CCS(=O)(=O)c2ccccc2)sc2cc(F)ccc21	2	-2.5	-5	5%	-5%	-1
C[C@H]1CN([C@@H](C)CO)C(=O)CCCn2cc(nn2)CO[C@@H]1CN(C)S(=O)(=O)c1ccccc1C#N	2	-11	1	5%	.	4

Three structures already listed, ordered by length of the SMILES, largest number first.
Molecule	CtBP-E1A blk	D2 agonist	D2 PAM	gsp agonist	gsp antagonist	Six1-Eya2 inh
COc1ccc(C(C)(C)C)cc1NC(=O)c1cccc(S(=O)(=O)N2CCN(C(C)=O)CC2)c1	2	-4.3	-3	6%[15.4 µM]	0%	7
Cc1ccc(NC(=O)CN(C)C(=O)COC(=O)CCS(=O)(=O)c2ccc(C)cc2)cc1	7	-3.4	-1	8%	-9%	0
C=CCN1C(=O)C(Cc2ccc(C)cc2)S/C1=N/N=C/c1ccco1 (configuration not stated)	7	-3.4	-2	-42%	-2%	0

(list continues)
Molecule	CtBP-E1A blk	D2 agonist	D2 PAM	gsp agonist	gsp antagonist	Six1-Eya2 inh
O=C1NCC(COCc2ccco2)O1 (configuration not stated)	11	-0.2	-6	0%	3%	2
CN(C)c1cccc(C(=O)NC2CCCc3ccccc32)c1 (configuration not stated)	-8	-1.2	-4	?	2%	-20
Cc1cc(C)n(C(=O)CNc2cccc(Cl)c2C)n1	3	-0.8	-23	-12%	2%	9
COc1ccc(-n2c(CN3CCN(c4ccccn4)CC3)nc3ccc([N+](=O)[O-])cc3c2=O)c(OC)c1	-2	-0.1	-8	-2%	-11%	-19
C/C(=N\NC(=O)c1ccc(O)cc1)c1ccc(N2CCOCC2)cc1	.	2.9	-3	0%[15.4 µM]	-1%	4
O=C(COc1ccccc1[N+](=O)[O-])NCc1cccnc1	1	-0.1	-3	?	6%	10
CS(=O)(=O)N(CC(=O)NCc1ccco1)c1ccc(OCc2ccccc2)cc1	-1	4.3	-3	-24%	-6%	-1
CN(C)S(=O)(=O)N1CCC(Oc2ccc(C(=O)NC3CCCCC3)cc2)CC1	4	-3.3	-3	2%[15.4 µM]	-23%	7
CN(C)CCCNc1oc(-c2ccccc2Cl)nc1S(=O)(=O)c1ccc(F)cc1	-10	-2.7	-21	0%	9%	-10
CCN(CC)CCCN1C(=O)C(O)=C(C(=O)c2sc(C)nc2C)C1c1ccco1 (configuration not stated)	12	-1.5	5	-2%	2%	5
CNC(=S)NC1CC2CCCC(C1)N2Cc1ccccc1OC (configuration not stated)	-2	0.7	-17	-1%[15.4 µM]	-10%	7
N#Cc1nc(COc2ccc(Cl)cc2)oc1N1CCCCCC1	-30	-3.9	-1	-1%	-19%	?

Next part
Molecule	CtBP-E1A blk	D2 agonist	D2 PAM	gsp agonist	gsp antagonist	Six1-Eya2 inh
Cc1nn(C)c2nc(-c3cccs3)cc(C(F)(F)F)c12	.	1.0	-7	-2%[15.4 µM]	1%	17
CCOc1ccc(NC(=O)CS(=O)(=O)c2cn(C)c3ccccc23)cc1	3	0.0	-7	-6%	2%	-2
Cc1ccc(/C=C2/Sc3ccc(C(=O)N4CCN(c5ccccn5)CC4)cc3NC2=O)cc1	-13	5.7	-5	-5%	-1%	3
COc1ccccc1NC(=O)C(CCS(C)(=O)=O)N1C(=O)c2ccccc2C1=O (configuration not stated)	7	0.1	-23	-16%	2%	4
CC(=O)Nc1sc(N/N=C\c2ccccc2F)nc1-c1cccs1	6	?	64*	-42%[inhibitor]	?	4
Cc1ccc(C)c(OCc2cc(C(=O)N3CCOCC3)no2)c1	.	1.2	-5	-1%	-9%	6
CN1C(=O)Cc2cc(S(=O)(=O)N3CCN(c4ccc(Cl)cc4)CC3)ccc21	6	-0.7	-10	17%	-3%	-2
CC1CC(C)CN(S(=O)(=O)N2CCCC(C(=O)NCCc3ccccc3)C2)C1 (configuration not stated)	5	6.4	-6	28%	-6%	1
NC(=O)CC(NC(=O)Cc1ccc(Cl)cc1)c1ccc(NC2CCCC2)c([N+](=O)[O-])c1 (configuration not stated)	5	-2.0	-5	.	-10%	-3
O=C(CSc1nncn1-c1ccccc1F)NC1CCCCC1	22	-6.1	3	5%	10%	-6
CCOc1ccc(-c2c(C(=O)N/N=C/c3cccs3)nnn2-c2nonc2N)cc1	0	?	-9	?	-27%	-10
O=C(Nc1ccc(Cl)cc1Cl)C1=Cc2ccccc2OC1	21	-0.9	-5	-2%	-8%	26

The listing continues.
Molecule	CtBP-E1A blk	D2 agonist	D2 PAM	gsp agonist	gsp antagonist	Six1-Eya2 inh
Cc1ccc(N2NC(C)(c3cccs3)NC2=S)cc1 (configuration not stated)	5	0.7	8	-3%	-14%	2
CCS(=O)(=O)c1ccc2c(c1)NC(=O)C(CCCl)O2 (configuration not stated)	-8	-4.3	-4	-3%[15.4 µM]	-15%	-9
CC1(C)CC(=O)C=C(c2ccc(-c3cnn(Cc4ccccc4)c3)cc2)C1=O	-14	-4.5	-3	-103%[inhibitor]	.	?
Cc1cc(C)nc(NC(=O)/C=C/c2ccccc2Cl)n1	2	-3.1	3	15%	1%	-3
CC(=O)Nc1cccc(NC(=O)CSc2nc3c(c(=O)n(C)c(=O)n3C)n2C)c1	3	-2.7	-4	51%[15.4 µM]	17%	-1
COc1ccc(C(=O)O)cc1S(=O)(=O)NCCN(C)C	4	-1.8	-1	4%[15.4 µM]	7%	-5
O=C(NCC1CCCO1)C1CC(=O)N(c2ccccc2)C1 (configuration not stated)	-3	-3.0	3	14%	2%	12
COc1cccc(/C=N/n2cncn2)c1OCC#N	5	-2.4	3	22%	8%	-3
N#CCSc1ccc(-c2nc3ccccc3[nH]2)cn1	-3	3.8	6	-16%[15.4 µM]	?	-6
Cc1cc(NCCCn2ccnc2)n2ncc(-c3ccc(Cl)cc3)c2n1	-26	6.9	19	2%	1%	-12
CCOc1ccc(CNC(=O)Cn2ccc3cc(S(=O)(=O)N4CCCCCC4)ccc32)cc1	.	-1.2	-8	-1%	-5%	2
COc1ccc(NC(=S)N(CCCN2CCC(C)CC2)Cc2cccs2)cc1Cl	3	-3.2	-22	-12%[15.4 µM]	-2%	-12
O=C(c1ccc(C#Cc2ccccc2)o1)N1CCN(c2ccccn2)CC1	-16	1.1	-5	-15%	35µM*	-8
